High-throughput results as filed in PubChem BioAssay.
RE007 growth inh: less growth of the S. pombe RE007 Vpr strain. Potency, µM (doses to about 92.2 µM), for the others: top-dose activity change, negative = less growth. hit rate 0.21% among 360,000. AID 651644. S. pombe RE007 Vpr strain, BacTiter-Glo ATP luminescence, 24 h; control for the full effect not named in the record; active = well fitted falling curve with a large enough effect; inconclusive = small, poorly fitted or top-dose-only effect; inactive = no such curve, though single readings can be large or run the other way;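 also: % is scaled to controls: 0 for no effect and ±100 for the full control effect; nearly all actives have a fitted effect of over 50% in size; the assay follows cell death caused by Vpr and the record does not say whether a fall means rescue or toxicity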
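Fission yeast strain RE007, carrying one chromosomally integrated HIV-1 vpr copy, was seeded at OD 0.01 in PMG+AL medium with 23 nL pinned compound. After 24 h at 30 °C and 99% humidity, viability was read by BacTiter-Glo luminescence.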
StopGo reporter: FMDV 2A StopGo reporter, luciferase signal. human cells with a luciferase reporter of 2A StopGo recoding; control for the full effect not named in the record. Potency, µM (series often up to 57.9 µM), inactives show at the highest dose signal change, negative = less light. hit rate 1.2% among 410,000. AID 1159524; active = well fitted falling curve with a large enough effect; inconclusive = small, poorly fitted or top-dose-only effect; inactive = no such curve, though single readings can be large or run the other way; tested in HEK293T cells; also: % is scaled to controls: 0 for no effect and ±100 for the full control effect; nearly all actives have a fitted effect of over 45% in size; luciferase light after 4 h
SARS PLP yeast: blocks SARS-CoV papain-like protease in a yeast assay; S. cerevisiae expressing SARS-CoV PLpro, growth rescue; control for the full effect not named in the record; Potency, µM (highest dose often 32.9 µM), for inactives: at the top dose activity, positive = growth rescue; hit rate 0.19% among 330,000; active means well fitted rising curve with a large enough effect; inconclusive means small, poorly fitted or top-dose-only effect; inactive means no such curve, though single readings can be large or run the other way; also: 0% is about no effect; nearly all actives have a fitted effect of over 55% in size; growth read by luminescence after 48 h
* marks the source's active call; other numbers are inactive results; ? = inconclusive; [ ] = dose if it differs, or a comment. Potency is read from the fitted curve at half-maximal effect. The list is partial; the hit share may differ from the screen's.

| Molecule | StopGo reporter | SARS PLP yeast | RE007 growth inh |
| --- | --- | --- | --- |
| C[C@@H]1COC(=O)[C@H](Cc2ccc(F)cc2)CC/C=C/C[C@@H](CC(=O)N[C@@H](CO)Cc2ccccc2)C(=O)N1 | -13% | 0% | 11% |
| Cc1ccc(NS(=O)(=O)c2cccc(C(=O)N3CCN(C(=O)c4ccco4)CC3)c2)cc1 | -19% | -2% | -2% |
| CC(C)(C)OC(=O)Nc1ccc([C@H](NC(=O)OC(C)(C)C)C(=O)OC(C)(C)C)cc1 | -8% | -2% | 1% |
| O=C(Cc1n[nH]c(=O)c2ccccc12)Nc1cccc(S(=O)(=O)N2CCCCCC2)c1 | ? | 4% | 1% |
| COc1ccc(NC(=O)N(C)C[C@H]2Oc3ccc(NC(=O)Cn4cnnn4)cc3C(=O)N([C@H](C)CO)C[C@@H]2C)cc1 | -11% | -8% | -10% |
| Nc1cccc2cc(-c3ccccc3)oc12 | 53%[activator] | -1% | -7% |
| CN(CC(=O)Nc1ccccc1Br)C(=O)CN1CCN(Cc2ccc(Cl)cc2)CC1 | -25% | 0% | -16% |
| O=C(Cc1ccc(S(=O)(=O)N2CCOCC2)s1)Nc1cc(C(F)(F)F)cc(C(F)(F)F)c1 | 0% | -1% | -8% |
| CC(=O)Nc1ccc(NC(=O)C(C)Sc2n[nH]c(-c3cccs3)n2)cc1 (configuration not stated) | -13% | 1% | 4% |
| CS(=O)(=O)Nc1ccc(C2=NN(S(=O)(=O)c3ccc(F)cc3)C(c3ccco3)C2)cc1 (configuration not stated) | ? | 4% | -1% |
| O=C(N/N=C/c1cc2c(cc1Br)OCO2)c1cccnc1 | 17% | 1% | 24% |
| Nc1c(N(CCC2=CCCCC2)C(=O)c2ccccc2F)c(=O)[nH]c(=O)n1Cc1ccccc1 | 5% | 3% | -7% |
| CC(C)NC(=O)N(C)C[C@H]1Oc2c(NS(=O)(=O)c3cccs3)cccc2C(=O)N([C@H](C)CO)C[C@@H]1C | 73%[activator] | -8% | 2% |
| CN(c1ccccc1)S(=O)(=O)c1cccc(NC(=O)c2cccc(C#N)c2)c1 | 25µM* | -3% | 6% |
| CCOC(=O)c1ccc(NC(=O)c2nc[nH]c2C(=O)NCCNC(=O)c2[nH]cnc2C(=O)Nc2ccc(C(=O)OCC)cc2)cc1 | ? | 6% | 4% |
| N#Cc1ccc(CSc2ccc(S(=O)(=O)N3CCCC3)cn2)cc1 | -4% | -4% | -6% |
| Cc1c(C)c2cccnc2c2ncccc12 | ? | 5% | ? |
| O=C(N/N=C/c1cc([N+](=O)[O-])ccc1O)C12CC3CC(CC(C3)C1)C2 | -2% | ? | -11% |
| CC(C)n1cnc2c(NCc3ccccc3)cc(N[C@H](C)CO)cc21 | 8.9µM* | 12% | ? |
| Cc1sc(NC(=O)Cn2cnnn2)nc1-c1ccc(Cl)cc1 | -39% | 2% | 7% |
| CCC(=O)OCCn1c(=O)c2ccccc2c2ccccc2c1=O | 2% | -4% | -10% |
| CC1CCCC(NC(=O)c2cccc(N3CCCC3=O)c2)C1C (configuration not stated) | 53%[activator] | -4% | -12% |
| C=C1C[C@H](O[C@@H]2O[C@H](CO)[C@@H](O)[C@H](O)[C@H]2O)[C@@H]2[C@H](OC(=O)[C@H]2C)[C@H]2[C@H](C)[C@@H](O)C[C@@H]12 | -11% | -5% | 2% |
| COc1ccc([N+](=O)[O-])cc1NC(=O)C(C)OC(=O)CC1CCCC1 (configuration not stated) | -24% | 1% | -3% |
| O=C(CN1C(=O)NC2(CCCCC2)C1=O)NCCc1ccccc1 | 7% | 1% | -18% |
| CN(C(=O)COC(=O)c1cc2ccccc2cc1O)C1CCCCC1 | 8% | 5% | ? |
| CC1CC(C)CN(C(=O)COC(=O)c2nccnc2N)C1 (configuration not stated) | -10% | 1% | 4% |
| CC(=O)c1sc(NC(=O)CCN2C(=O)C3CC=CCC3C2=O)nc1-c1ccccc1 (configuration not stated) | -26% | -3% | -10% |
| CC(C)(C)[C@H]1COC(=O)[C@@H](Cc2ccc(F)cc2)C/C=C\C[C@@H](CC(=O)N[C@H](CO)Cc2ccccc2)C(=O)N1 | 0% | 2% | 5% |
| CCOC(=O)c1c(C)[nH]c(C(=O)NNC(=O)c2ccc(Br)cc2)c1C | 24% | 5% | -1% |
| O=C(COC(=O)c1cc(S(=O)(=O)N2CCOCC2)ccc1F)NCCc1ccc(F)cc1 | -1% | 3% | -6% |
| C#CCOCCOCCOCCNc1nc(N2CCN(C(=O)[C@H](CCC(=O)O)n3cc(CN)nn3)CC2)nc(N2CCN(C(=O)[C@H](CCCN=C(N)N)n3cc(C(N)[C@@H](C)CC)nn3)CC2)n1 (some centres not stated) | -11% | 4% | 8% |
| COC(=O)Cc1csc(NC(=O)CSc2nnc3ccccn23)n1 | 4% | 4% | 5% |
| COc1ccc(-c2noc(CCC(=O)N3CCN(c4ccccc4F)CC3)n2)cc1 | -26% | 1% | -10% |
| N#Cc1ccc(NC(=O)C2=COCCO2)cc1 | 48%[activator] | -5% | 5% |
| Cc1ccc(N2CCN(C(=S)Nc3ccccc3)CC2)cc1 | -2% | 8% | 7% |
| CCOC(=O)C1CCCN(C(=O)c2cccc(S(=O)(=O)N(C)c3ccc(C)cc3)c2)C1 (configuration not stated) | ? | -2% | -14% |
| O=C(CC1C[C@H](C(=O)N2CCOCC2)[C@@]2(CCC3CCCC3)c3[nH]c4ccccc4c3CCN2C1=O)NCCN1CCOCC1 (some centres not stated) | 8% | -6% | -11% |
| CCOc1ccc(CCNC(=O)CCC(=O)Nc2ccc3nc(N4CCN(C)CC4)cc(C)c3c2)cc1OCC | -9% | -2% | 0% |
| C[C@H]1CN([C@@H](C)CO)C(=O)Cc2cc(NC(=O)CCC(F)(F)F)ccc2O[C@H]1CN(C)Cc1ccc(C(F)(F)F)cc1 | -30% | 3% | 13% |
| CC(C)N(C(=O)COC(=O)CNS(=O)(=O)c1ccccc1F)c1ccccc1 | -17% | 0% | 0% |
| Cc1cccc(NS(=O)(=O)c2cccc(C(=O)N3CCCCCCC3)c2)c1 | 16% | 2% | 0% |
| CC[C@]12c3[nH]c4ccc(Cl)cc4c3CCN1C(=O)[C@@H](CC(=O)NCCC1=CCCCC1)C[C@@H]2C(=O)N1CCN(C(=O)C2CC2)CC1 | 0% | 6% | 3% |
| COC(=O)C1=C(c2ccc(F)cc2F)C[C@@H]2CC[C@H]1N2C(=O)NCCOc1ccccc1 | -15% | -19% | 8% |
| CCOc1ccc(NC(=O)CN(C)C(=O)COc2cccc3c2OC(C)(C)C3)cc1OCC | -19% | -8% | 0% |
| C[C@]1(CC/C(=C/CO)CO)[C@H](CO)CC[C@@]23COC(=O)C2=CCC[C@@H]31 | 0% | -6% | 5% |
| CC(=O)C[C@@H](O)CC(=O)[C@H]1OC(=O)[C@H](C)C/C=C\Cc2ccccc21 | -6% | -1% | 0% |
| C=CCC[C@H](Cc1ccc(F)cc1)C(=O)OC[C@@H](Cc1c[nH]c2ccccc12)NC(=O)[C@@H](CC=C)CC(=O)N[C@@H](CO)Cc1ccccc1 | ? | -31% | 4% |

Retrieved one by one from the list above:
| Molecule | StopGo reporter | SARS PLP yeast | RE007 growth inh |
| --- | --- | --- | --- |
| O=C(N/N=C/c1cc([N+](=O)[O-])ccc1O)C12CC3CC(CC(C3)C1)C2 | -2% | ? | -11% |
| Cc1c(C)c2cccnc2c2ncccc12 | ? | 5% | ? |
| N#Cc1ccc(NC(=O)C2=COCCO2)cc1 | 48%[activator] | -5% | 5% |
| CC(=O)C[C@@H](O)CC(=O)[C@H]1OC(=O)[C@H](C)C/C=C\Cc2ccccc21 | -6% | -1% | 0% |
| COc1ccc(-c2noc(CCC(=O)N3CCN(c4ccccc4F)CC3)n2)cc1 | -26% | 1% | -10% |

Next records follow.
| Molecule | StopGo reporter | SARS PLP yeast | RE007 growth inh |
| --- | --- | --- | --- |
| COc1cccc(-c2c(-c3cc(OC)cc(OC)c3)n(C)c3ccc(-c4cnc(N5CCOCC5)nc4)cc23)c1 | -17% | -5% | -1% |
| CC1CC(C)CN(C(=O)C(C)N(C)CC(=O)Nc2ccc(Cl)cc2)C1 (configuration not stated) | -20% | -1% | -16% |
| CCN1C(=O)C(=O)c2cc(C)ccc21 | -3% | 11µM* | -3% |
| O=C(NCC1COc2ccccc2O1)C1CCN(S(=O)(=O)c2ccc(Cl)cc2)CC1 (configuration not stated) | -25% | 1% | -5% |
| CC[C@@H]1CCCCc2ccccc2[C@H](C(=O)C[C@@H](O)CC(C)=O)OC1=O | -2% | -6% | -15% |
| CN1CCC(N(C)C(=O)c2ccc(Cl)c(S(=O)(=O)N3CCc4ccccc43)c2)CC1 | -8% | -1% | -9% |
| C=CCc1cc(C=C2C(=O)NC(=O)NC2=O)cc(OC)c1OCc1ccc(C(=O)O)cc1 | -16% | 1% | 1% |
| CC1CC(C)CN(C(=O)c2cccc(N3C(=O)c4ccccc4C3=O)c2)C1 (configuration not stated) | -9% | -6% | ? |
| CCOc1ccccc1NC(=O)NC(=O)N(C)S(=O)(=O)c1ccc(C)cc1 | -8% | 1% | -1% |
| Cc1nn(CC(=O)NC(=O)c2ccccc2)c(C)c1[N+](=O)[O-] | -21% | 3% | 14% |
| CCOC(=O)C1=C(C)N(C[C@@H]2CC[C@@H](Cc3ccc(-c4ccccc4)cc3)O2)C(=O)NC1c1ccc([N+](=O)[O-])cc1 (some centres not stated) | -28% | -9% | 4% |
| C=CC(C)(C)O[C@@H]1O[C@H](CO)[C@@H](O)[C@H](O)[C@H]1O | -12% | 0% | 2% |
| CC[C@@H](C)[C@@H]1CN([C@@H](CN2CCC[C@H]2CN2C(N)=NC[C@H]2C(C)C)C(C)C)C(=N)N1CCc1ccc(Cl)c(Cl)c1 | -3% | 3% | 17% |
| C=CC[C@@H](CC(=O)N[C@H](CO)Cc1ccccc1)C(=O)N[C@@H](C)COC(=O)[C@@H](CC=C)Cc1ccc(F)cc1 | ? | -2% | -4% |
| CCOc1ccccc1NC(=O)COC(=O)C(Cc1ccccc1)NC(=O)c1ccco1 (configuration not stated) | -2% | 2% | 2% |
| CN(C(=O)CSc1nnc(-c2ccc(F)cc2)n1C)C1CCS(=O)(=O)C1 (configuration not stated) | -19% | -4% | -15% |
| CC[C@]1(C(=O)OC)[C@H]2C(=O)N(C)C(=O)[C@H]2[C@H]2CN=C(SCc3ccc(C)cc3)N21 | -15% | -2% | -6% |
| CCN(c1ccc(C(=O)CN2C(=O)NC3(CCOc4ccccc43)C2=O)cc1)S(C)(=O)=O (configuration not stated) | -20% | -4% | -1% |
| Cc1c(C(=O)NC2CC2)oc2ccccc12 | 21% | -3%[6.58 µM] | 2% |
| CC(C)(C)OC(=O)NCCCC[C@@H](C(=O)NCCCCCCCCCCC(=O)N1CCN(C(=O)OC(C)(C)C)CC1)n1cc(CCCC(=O)O)nn1 | -21% | 0% | 17% |
| COc1ccc(C(=O)OCC(=O)Nc2ccc3c(c2)OCCO3)c(OC)c1 | 4% | 9% | 3% |
| Cc1ccc(CSc2nnc(NC(=O)C3=COCCO3)s2)cc1 | 35%[activator] | 4% | 10% |
| O=C(COC(=O)c1ccc(O)cc1O)Nc1ccc2c(c1)OCCO2 | 51%[activator] | 1% | 7% |
| CN(C(=O)COC(=O)CNC(=O)c1cccs1)c1c(N)n(Cc2ccccc2)c(=O)[nH]c1=O | -3% | 2% | 4% |
| CC(=O)c1sc(=S)n(-c2ccc(Cl)cc2)c1C | -15% | 0% | -30% |
| COc1ccc2cc(CCNC(=O)c3cccc([N+](=O)[O-])c3)c(=O)[nH]c2c1 | ? | -1% | -16% |
| O=C(CNC(=O)c1ccc(Br)o1)NNC(=O)COc1ccccc1Cl | -18% | -5% | 0% |
| CC1CCCC(C)N1C(=O)COC(=O)CNC(=O)c1ccccc1F (configuration not stated) | 0% | -3% | -5% |
| CN(C)S(=O)(=O)c1cc(NC(=O)COC(=O)CC2CC3CCC2C3)ccc1Cl (configuration not stated) | -19% | -1% | 3% |
| Cc1ccc(S(=O)(=O)N2CCOCC2)cc1NC(=O)CSc1nnc(C2CC2)n1C1CC1 | -21% | -10% | -10% |
| Cc1ccc(NC2=C(Cl)C(=O)OC2OC(C)C)cc1 (configuration not stated) | -1% | -8% | 13% |
| Oc1ccc[n+](/C=C\c2ccccc2)c1 | -5% | -2% | -1% |
| CCOC(=O)[C@H]1[C@H]2COc3ccc(Cl)cc3[C@@H]2N2C(=O)[C@@H](C)NC(=O)[C@@]12C | -14% | 6% | 0% |
| CSc1ncccc1C(=O)OCC(=O)NCc1ccc2c(c1)OCO2 | 6% | -2% | 2% |
| Nc1ncnc2c1ncn2[C@@H]1O[C@H](CNC(=O)[C@@H](N)CO)[C@@H](O)[C@H]1O | -10% | 11% | -11% |
